# PABP FP inh = blocks human PABP binding to poly(A) RNA; P11940; inhibition, % at 35 µM; hit rate 1% among 290,000; fluorescence polarization;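 active = 50% or more with normal probe brightness, or confirmed in later tests; inconclusive = above 50% with abnormal brightness, or retests that disagree; inactive = below 50% or failed in later tests; about a fifth of its hits are not listed in these tables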;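 also: calls also rest on retests at 20 µM and on dose response follow-up; controls were probe without protein and protein plus probe with vehicle; some compounds called inactive have numbers as strong as hits; many hits fall short of the cut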
# Target sequence (P11940 whole entry, looked up): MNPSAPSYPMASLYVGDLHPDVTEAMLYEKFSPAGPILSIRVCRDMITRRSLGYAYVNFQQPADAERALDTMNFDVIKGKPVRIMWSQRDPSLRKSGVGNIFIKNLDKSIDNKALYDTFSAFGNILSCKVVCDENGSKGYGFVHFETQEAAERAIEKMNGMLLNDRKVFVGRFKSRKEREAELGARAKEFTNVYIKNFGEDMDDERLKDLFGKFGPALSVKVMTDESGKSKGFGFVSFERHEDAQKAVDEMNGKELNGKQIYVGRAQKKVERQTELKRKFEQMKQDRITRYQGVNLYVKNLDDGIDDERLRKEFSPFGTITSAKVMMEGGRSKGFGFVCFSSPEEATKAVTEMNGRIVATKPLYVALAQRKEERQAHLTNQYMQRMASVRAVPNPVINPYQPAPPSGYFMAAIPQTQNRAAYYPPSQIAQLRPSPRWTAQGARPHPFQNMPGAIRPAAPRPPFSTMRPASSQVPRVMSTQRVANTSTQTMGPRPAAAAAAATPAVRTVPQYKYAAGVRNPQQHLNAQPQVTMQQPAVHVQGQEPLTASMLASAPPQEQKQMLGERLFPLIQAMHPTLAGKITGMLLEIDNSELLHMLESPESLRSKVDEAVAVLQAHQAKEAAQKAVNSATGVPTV
# Yeast UUG start = yeast start codon fidelity modulation | S. cerevisiae UUG-firefly luciferase reporter, luminescence/redox ratio | activity score, % at 18.7 µM | hit rate 0.13% among 350,000 | AID 602363;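 active = replicate mean at a twofold rise or more, about +100% in these data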;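 also: firefly luciferase made from a UUG start codon reports start codon fidelity; reporter light over untreated wells divided by growth signal over untreated wells; some hits fall short of that in this replicate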
# eIF4H inh = inhibitors of RNA binding by human eIF4H. eIF4H fluorescence polarization binding assay. inhibition, % at 35 µM. hit rate 0.94% among 290,000. Q15056;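 active = 50% or more with normal probe brightness, or confirmed in later tests; inconclusive = above 50% with abnormal brightness, or retests that disagree; inactive = below 50% or failed in later tests; about a fifth of its hits are not listed in these tables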;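 also: calls also rest on retests at 20 µM and on dose response follow-up; 0% = protein and probe with vehicle and 100% = probe without protein; strong numbers were not always called active; many hits fall short of the cut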
# HIV Env fusion = HIV envelope-mediated fusion inhibition. HeLa-JRFL Env/CEM21 cell fusion, luciferase. inhibition, % at 12.3 µM. hit rate 1.1% among 360,000. AID 651610;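 active = mean replicate inhibition score of at least 50 and every replicate individually at or above 50; inconclusive = only one of the two criteria met; inactive = mean below 50 and not all replicates reaching 50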;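 also: 0% = plate neutral controls and 100% = maraviroc near 300 nM; one replicate is shown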
# Rce1 inhib = inhibitors of yeast Ras-converting enzyme | hit rate 0.27% among 290,000 | Q03530 | yeast membranes, quenched prenylated peptide cleavage fluorescence | calls only;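 active = fall in fluorescence gain of 50% or more versus controls, with final raw signal at or below 3038400; inconclusive = same 50% fall but final raw signal above 3038400; inactive = fall in fluorescence gain under 50%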;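 also: plate controls were neutral control wells for no effect and wells lacking membranes for full effect; tested at 10 µM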
# MT1-MMP act inh = MT1-MMP (human) activation inhibition; GFP/RFP ratio change, % at 20 µM; HT1080 RFP-PRO-GFP cells, GFP/RFP ratio fluorescence, overnight; percent of plate control window, DMSO zero; hit rate 0.061% among 360,000; P50281;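 active = GFP/RFP ratio change of at least 30% with cell ATP level not reduced by more than half and red fluorescence within 50% of control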; also: strong numbers were not always called active
#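 Assay system – RFP-PRO-GFP reporter HT1080 cells · Compound dosing – single dose of 20 µM compound, 1% DMSO final · Incubation – overnight compound exposure at 37 °C · Measure – GFP/RFP fluorescence ratio · Benchmarks – DMSO wells and RFP-L50D-GFP cells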
# CSC inhib = blocks cancer stem cells; AID 2717; hit rate 1.1% among 300,000; cancer stem cell-like cells viability, luminescence; inhibition, % at 7.5 µM;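 active = mean at 75% or more and at least half the replicates too; inconclusive = mean and replicates disagree; tested in HMLE shEcad cells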;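 also: 0% = median of negative and 100% = median of positive control wells; the first replicate is given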
# MT1-MMP act inh RFP = also measured in MT1-MMP act inh; calls as there; RFP signal change, %; measured here: RFP expression control read;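 0 = vehicle wells; hits needed this value within 50% of zero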
# * = called active by the depositor; i = inactive; u = inconclusive; x = not tested or not shown.
SMILES,PABP FP inh,Yeast UUG start,eIF4H inh,HIV Env fusion,Rce1 inhib,MT1-MMP act inh,MT1-MMP act inh RFP,CSC inhib
N#Cc1c(-c2ccccc2)nc(SCc2cccc(C(F)(F)F)c2)[nH]c1=O,-7,-11,-2,21,i,-8,-5,105*
Cc1cc(C)nc(NS(=O)(=O)c2ccc(NS(=O)(=O)c3ccc(C#N)cc3)cc2)n1,-14,-9,-17,9,i,0,6,-12
COc1c(Cl)ccc(Cl)c1C(=O)OCC(=O)O,25,-5,4,x,i,2,6,-4
O=C(O)c1cccc(N/N=C/c2cccs2)c1,-2,x,26,54,i,-2,2,0
O=C(COC(=O)COc1ccc(Cl)cc1Br)NCCC1=CCCCC1,x,9,x,x,x,5,3,-2
COc1ccc2oc(-c3ccccc3)c(C(=O)O)c2c1,3,x,-4,-5,i,1,3,-5
CN1CCN(Cc2cn(C)nc2-c2ccccc2F)CC1c1ccccc1 (configuration not stated),-7,x,-11,-4,i,-7,-2,4
COCCNC(=O)C1(C)CCCN(C(=O)c2cc(F)ccc2C)C1 (configuration not stated),x,-9,x,-23,x,4,6,x
COc1cc(/C=N/NC(N)=O)cc(Br)c1OCc1ccccc1C,-6,-16,-7,-47,i,4,4,0
Cc1ccc(C2(C)NC(=O)N(Cc3c(C)noc3C)C2=O)cc1 (configuration not stated),2,-12,-1,x,i,-4,-2,-12
O=C1N=C(N2CCOCC2)SC1=C1CCCCC1,-4,-10,1,-39,i,0,2,-10
O=C(NNC(=S)Nc1ccccc1)c1cc(Br)ccc1Cl,6,-25,3,5,i,4,-3,-3
CCOc1ccccc1C(=O)Nc1ccccc1-c1ccccc1,5,x,5,15,i,-4,-10,58
Cc1ccc(SCC(=O)Nc2ccccc2C(=O)O)cc1,16,-14,2,-59,i,0,5,-7
Cc1sc2ncnc(SCC(=O)N3CCCC(C(F)(F)F)C3)c2c1C (configuration not stated),-4,-6,-14,10,i,-3,-6,-1
O=C(CCn1c(=O)sc2ccccc21)NCc1ccc2c(c1)OCO2,0,-10,-1,x,i,6,0,9
CCOC(=O)c1oc2ccc(Br)cc2c1NC(=O)CN1CCN(C)CC1,5,-4,-3,x,x,-4,2,2
CC(=O)N1N=C(C)CC1c1ccc(O)cc1 (configuration not stated),-20,-2,3,-5,i,-4,-1,9
COc1ccc(NCc2nnc(SCC(=O)NNC(=O)c3ccc(C)cc3)n2C)cc1,4,x,2,0,i,0,1,-5
CSc1nc(C)cc(Oc2ccc(=O)[nH]n2)n1,-6,x,-5,-4,i,-1,2,0
O=C(NCc1nc(-c2ccccc2)cs1)c1ccccc1,-3,-13,-6,11,i,1,-4,2
CN(C)S(=O)(=O)c1cccc(NC(=O)COC(=O)c2cc(-c3cccc(Br)c3)nc3ccccc23)c1,-10,x,-7,4,i,3,1,-8
O=C(CSc1nc2c(cnn2-c2ccc(F)cc2)c(=O)[nH]1)N1CCOCC1,-1,-8,-13,10,x,4,3,-12
Cc1cnc(C(=O)NNC(=O)c2ccc(Br)cc2)cn1,x,-18,x,1,i,5,5,12
Cn1nc(CC(=O)Nc2ccc(N3CCN(C(=O)OC(C)(C)C)CC3)cc2)c2ccccc2c1=O,-5,736*,-3,u,i,3,-16,-1
O=C(Cc1cccc2ccccc12)NN1C(=O)CSC1=S,-17,x,-14,-7,i,2,12,-21
O=C(NC1CCCCC1)c1nc2c(nnn2Cc2ccccc2Cl)c(=O)[nH]1,2,-10,4,-40,i,8,-5,-8
Cc1oc(-c2ccc(Cl)cc2)nc1CN1CCC(C(=O)NCCCN2CCCC(C)C2)CC1 (configuration not stated),x,-14,x,8,i,3,-3,-20
CCCNS(=O)(=O)c1ccc(OCC(=O)N2CCOCC2)cc1,-8,-30,-2,x,i,9,3,-6
CN(CC(=O)Nc1ccc(Cl)cc1)C(=O)c1cccc(S(=O)(=O)N2CCN(Cc3ccccc3)CC2)c1,x,2,x,10,x,-10,-26,4
CCOc1ccc(S(=O)(=O)NCCC(=O)OCC(=O)Nc2cc(C)on2)cc1,7,-14,-4,-18,i,-1,0,-6
COc1ccc(NC(=O)CNC(=O)Cc2ccccc2)cc1OC,5,-8,-14,1,i,4,5,x
N#Cc1ccc(C(=O)Nc2nc3ccccc3[nH]2)cc1,-3,-20,-2,-87,i,3,1,-2
CC(=O)c1ccc(S(=O)(=O)NCc2ccc(C(=O)NCC(c3ccccc3)N(C)C)cc2)cc1 (configuration not stated),-4,-4,-1,1,i,2,0,-13
O=C1C[C@@H](c2ccc(O)cc2)Oc2cc(O)cc(O)c21,7,-13,6,-4,i,4,2,x
O=C1C(=O)N(c2cccc(Cl)c2)C(c2ccccc2[N+](=O)[O-])/C1=C(\O)c1ccccc1 (configuration not stated),3,-10,4,x,i,-1,11,2
CN(C)S(=O)(=O)n1cc(/C=C(\NC(=O)c2ccccc2Cl)C(=O)NCCCN2CCOCC2)c2ccccc21,-9,4,-3,5,i,1,1,6
COc1ccccc1CCC(=O)OCC(=O)N1CCN(S(=O)(=O)c2ccc(C)cc2C)CC1,x,7,x,-4,i,-3,1,-4
CCOc1ccccc1NC(=O)c1nc(S(=O)(=O)Cc2ccccc2)ncc1Cl,3,1,-16,-4,i,-3,2,x
C/C(=N\NC(=O)c1sccc1C)c1ccncc1,10,-22,-7,26,i,-1,2,x
NC(=O)C1CCN(C(=O)C2CCC(=O)N(C3CCCCCC3)C2)CC1 (configuration not stated),2,-10,-11,-1,i,2,1,2
O=C1C=C(c2ccc(O)cc2)C[C@@H](c2ccc3c(c2)OCO3)C1,x,-13,x,3,x,1,-4,36
CCOC(=O)c1cc2[nH]c3ccccc3c2[n+](-c2ccc([N+](=O)[O-])cc2)c1C,-9,x,1,-9,i,2,4,x
COCCNc1nnc(SCC(=O)NC(=O)c2ccccc2)s1,x,-19,x,1,i,-4,-1,-8
Cc1ccsc1/C=N\NC(=O)c1ccc2c(c1)OCO2,6,-13,11,-145,i,7,0,-2
COC(=O)c1cccc(NC(=O)c2cccc(OC)c2)c1,7,2,-6,-79,x,1,1,10
Cc1nn(Cc2c(Cl)cccc2Cl)c(C)c1NC(=O)c1cc(C(C)C)on1,-1,-3,0,-40,i,7,-10,31
COc1ccc(C)cc1NC(=O)NCc1ccc(F)cc1,-6,x,4,6,x,2,6,6
Nc1nc(C23CC4CCC(CC(C4)C2)C3)cs1,17,x,-1,-1,i,-6,-2,7
COc1ccc(OC)c(S(=O)(=O)N(C)CC(=O)Nc2ccc3c(c2)OCCO3)c1,-2,9,-8,x,i,1,-3,-5
O=C(NCCc1ccccc1)C1CCN(C(=O)c2sccc2-n2cccc2)CC1,21,6,-6,x,i,2,2,-4
COc1cc(CCC(=O)NCc2ccc(S(N)(=O)=O)cc2)cc(OC)c1OC,4,-15,1,-4,i,4,2,-11
O=C(Nc1ccccc1F)NC1CCN(Cc2nnnn2Cc2ccc(F)cc2)CC1,-13,-4,6,-16,i,0,2,-11
CCC(C)(C(=O)NC1CCCC1)N(Cc1cccs1)C(=O)c1ccc2c(c1)OCO2 (configuration not stated),-17,x,-7,x,i,2,4,-4
COc1ccc(CCNC(=O)COc2ccc(S(=O)(=O)N3CCCC3)cc2)cc1,34,x,-4,13,i,0,4,8
COc1ccc(S(=O)(=O)N2CCN=C2SCc2cccnc2)cc1,-1,x,9,23,x,0,6,4
N#Cc1c(N)sc(=S)c2c1CCCCC2,21,-6,u,-31,i,-36,5,-6
CC(C)(C)C(=O)Nc1sc2c(c1C#N)CCN(Cc1ccccc1)C2,u,-7,u,12,i,-27,5,-1
CCOc1cc(C(=O)Nc2ccccc2N2CCOCC2)ccc1OCC(=O)N1CCCCC1,1,x,-8,10,i,2,1,-16
COC(=O)Nc1ncc(CN2CCC(c3ccccc3)CC2)s1,-3,x,-3,-91,i,5,7,12

# Molecules listed so far that have a furan ring, fused or not:
SMILES,PABP FP inh,Yeast UUG start,eIF4H inh,HIV Env fusion,Rce1 inhib,MT1-MMP act inh,MT1-MMP act inh RFP,CSC inhib
COc1ccc2oc(-c3ccccc3)c(C(=O)O)c2c1,3,x,-4,-5,i,1,3,-5
CCOC(=O)c1oc2ccc(Br)cc2c1NC(=O)CN1CCN(C)CC1,5,-4,-3,x,x,-4,2,2

# Further structures follow:
SMILES,PABP FP inh,Yeast UUG start,eIF4H inh,HIV Env fusion,Rce1 inhib,MT1-MMP act inh,MT1-MMP act inh RFP,CSC inhib
O=C1CC(c2ccccc2)CC(O)=C1C=NCCN1CCN(C(=O)Nc2ccccc2)CC1 (configuration not stated),0,-21,-6,6,i,x,x,-13
CCN(CC)S(=O)(=O)c1ccc(S(=O)(=O)N(CC(=O)Nc2ccccc2)CC2CCCO2)cc1 (configuration not stated),x,x,x,29,i,-3,-5,7
CN(C)C(=O)Cn1cnc2c(cnn2-c2ccccc2Cl)c1=O,-6,-23,9,x,i,-2,3,-8
CC(=O)NCCOc1nc(N(C)C)nc(N2CCCCC2)n1,-5,-17,-1,-8,i,1,2,4
O=C(CSc1nccn1-c1cccc(Cl)c1)Nc1ccc2c(c1)OCCO2,2,-13,-1,-1,i,1,1,4
N#CCSc1nccc(/C=C/c2ccccc2)n1,4,x,-5,-36,i,-9,-3,-6
Cc1nc2c3c(sc2c(=O)[nH]1)NC(=O)CC3c1ccccc1Cl (configuration not stated),2,x,4,-9,i,11,6,-2
Cc1noc(C)c1C(=O)N1CCN(CCc2ccccc2)CC1,-17,-7,-10,22,i,-5,1,-10
Cc1cccc(CN2CCC(C(=O)Nc3ccc(-n4nc(C)cc4C)cc3)CC2)n1,-10,-25,4,22,i,1,5,1
CCN(C(=O)CCS(=O)(=O)c1cccc2nonc12)c1ccc(C)c(C)c1,-3,-2,10,7,i,5,-3,-7
O=C(Cc1ccccc1)NNC(=O)Nc1cccc(Cl)c1,3,-13,-9,u,i,-2,-5,-5
COc1ccc(NC(=O)O/N=C/c2c(C)nn(C(C)(C)C)c2C)cc1,-1,-30,2,-39,i,1,1,2
Cc1coc(C)c1C(=O)CC1(O)C(=O)Nc2cc(Cl)cc(Cl)c21 (configuration not stated),3,x,-7,x,i,-2,-3,-5
COc1ccc(C)cc1NC(=O)CSc1nc2scc(C)c2c(=O)[nH]1,-7,0,-7,4,i,5,3,-12
CCOC(=O)c1c(C)oc2ccc(OCc3cc(C(=O)OC)oc3C)cc12,7,-12,-2,x,i,3,-1,18
CCN1C(=O)C2(SC(NC(C)=O)=NN2C(C)=O)c2cc(C)ccc21 (configuration not stated),-5,-7,21,x,i,-1,0,-1
Cc1nc(C)c(C(=O)N/N=C/c2cc(Br)ccc2O)s1,6,17,-6,-20,i,5,-5,66
CCN(c1ccccc1)S(=O)(=O)c1ccc2c(c1)CCCN2C(C)=O,6,-8,-13,0,i,2,2,-11
COc1cc(NC(=O)c2cc(OC)c(OC)c(OC)c2)c(OC)cc1NC(=O)CN1CCCCC1,5,-6,-3,x,i,0,1,15
CC(C)N(C(=O)Cn1cc(S(=O)(=O)CC(=O)NCCc2ccccc2)c2ccccc21)C(C)C,x,5,x,52,x,-3,3,x
[O-][n+]1c2cc(C(F)(F)F)ccc2c2n1CCN=C2c1ccc(Cl)cc1,x,5,x,-33,i,1,1,-12
C/C(CCc1ccccc1)=N\NC(=O)COc1ccccc1C,-10,x,3,2,i,-3,3,17
Cn1c(C(=O)c2ccccc2)nc2ccccc21,-8,-1,-1,-22,i,4,5,-6
O=C(N/N=C/c1cn(-c2ccccc2)nc1-c1ccc2c(c1)OCCO2)c1ccncc1,13,x,-16,-10,i,3,4,x

# The list is partial, so the mix of outcomes need not match the whole.
